ALR inh = inhibitors of human ALR sulfhydryl oxidase, primary screen, biochemical, H2O2 detection, HRP-luminol luminescence, single point. FAD-linked sulfhydryl oxidase ALR (Homo sapiens), P55789. purified ALR, DTT oxidation. 3.8% of 290,000 active. inhibition, % (no concentration beside the values);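 active means mean and each replicate at 75% or more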;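 further: stock transfer was 7.5 nL into about 7.5 µL; 0% = neutral wells and 100% = wells with inactivated enzyme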
Target sequence (P55789 whole entry, looked up): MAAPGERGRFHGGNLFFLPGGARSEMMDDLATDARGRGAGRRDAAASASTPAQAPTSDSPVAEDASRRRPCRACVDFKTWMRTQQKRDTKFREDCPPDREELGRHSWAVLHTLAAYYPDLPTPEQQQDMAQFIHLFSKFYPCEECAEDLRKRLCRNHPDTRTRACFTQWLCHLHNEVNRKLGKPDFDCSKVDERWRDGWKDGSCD
E coli growth = E. coli growth inhibition, primary screen, OD600; Escherichia coli growth, 23 h; stronger effect = lower value; OD600 absorbance (no concentration beside the values); 0.21% of 330,000 active; AID 1053175, 2014;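 active means OD600 absorbance below the run mean of sample wells minus 3.6 SD, in any replicate, cut at about 0.56 in these data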;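 further: stock transfer was 300 nL into about 60 µL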
UCH37 inh = inhibitors of human UCH37 deubiquitinase, primary screen, biochemical, Ub-AMC cleavage, fluorescence; Ubiquitin carboxyl-terminal hydrolase isozyme L5 (Homo sapiens), Q9Y5K5; purified proteasome/UCH37; inhibition, % (no concentration beside the values); 0.33% of 330,000 active; AID 588478, 2011;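 active means mean of two replicates above 20%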;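 further: 0% = compound-free wells with enzyme and 100% = wells lacking proteasome; stock transfer was 100 nL into about 20 µL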
Target sequence (Q9Y5K5 whole entry, looked up): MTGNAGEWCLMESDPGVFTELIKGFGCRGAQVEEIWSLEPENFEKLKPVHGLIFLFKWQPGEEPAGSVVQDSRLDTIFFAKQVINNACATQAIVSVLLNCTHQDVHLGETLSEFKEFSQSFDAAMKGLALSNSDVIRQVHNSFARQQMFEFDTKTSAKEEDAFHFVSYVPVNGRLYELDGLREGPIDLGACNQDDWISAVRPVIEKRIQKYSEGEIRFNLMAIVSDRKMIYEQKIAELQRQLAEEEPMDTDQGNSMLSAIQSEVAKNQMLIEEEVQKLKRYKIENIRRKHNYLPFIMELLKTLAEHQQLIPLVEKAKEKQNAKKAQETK
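Assay system: Proteasome-bound UCH37. Buffer or medium: pH 7.4 Tris-HCl (50 mM) with ovalbumin, ATP-MgCl2, DTT. Incubation: 30 min preincubation with enzyme, 25 min cleavage at room temperature. Measured by: fluorescence, ex 355 nm, em 460 nm. Read-out basis: percent inhibition. Control set: wells without proteasome as full block, compound-free enzyme plus substrate as uninhibited.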
FGF22 binding = binders of human FGF22 protein, primary screen, FGF22 synaptogenesis inhibitor project, biophysical, thermal shift, single point; Fibroblast growth factor 22 (Homo sapiens), Q9HCT0; recombinant FGF22 thermal shift, SYPRO orange fluorescence; percent of sucrose octasulfate shift, DMSO zero; calls only at 9.99 µM; 1.5% of 340,000 active; AID 651658, 2012;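 active means melting point raised past a set limit in the mean and every replicate; three in four hits are not shown here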
Beta2AR agonist = beta2AR agonists driving receptor internalization, primary screen, cell-based, FAP fluorogen, flow cytometry | Am2.2-beta2AR cells; reference of the scale not given here | response, % (concentration not given with the values) | 0.43% of 340,000 active | Beta-2 adrenergic receptor (Homo sapiens), P07550 | AID 504454, 2011;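 active means response above a set limit, near 3 SD of response in nonfluorescent compounds, cut at about 42% in these data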;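 further: stock transfer was 100 nL into about 11 µL; a reference agonist was the positive control; negative values mostly stem from fluorescent compounds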
Target sequence (P07550 whole entry, looked up): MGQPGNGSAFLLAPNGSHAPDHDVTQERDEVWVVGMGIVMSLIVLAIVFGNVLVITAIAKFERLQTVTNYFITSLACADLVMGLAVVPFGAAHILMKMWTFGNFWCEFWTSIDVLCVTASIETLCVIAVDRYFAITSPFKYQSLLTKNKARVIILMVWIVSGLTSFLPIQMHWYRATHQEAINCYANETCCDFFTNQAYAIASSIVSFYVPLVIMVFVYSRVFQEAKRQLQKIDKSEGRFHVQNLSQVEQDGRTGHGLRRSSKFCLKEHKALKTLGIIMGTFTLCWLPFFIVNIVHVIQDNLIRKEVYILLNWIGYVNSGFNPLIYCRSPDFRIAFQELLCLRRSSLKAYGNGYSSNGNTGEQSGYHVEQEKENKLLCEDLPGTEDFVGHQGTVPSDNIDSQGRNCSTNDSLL
Ecoli rRNA inh = reduced GFP signal of wild-type E. coli, primary screen, bacterial rRNA inhibitor project, GFP/RFP fluorescence, OD600, single point | E. coli WT GFP vs humanized-ribosome RFP mutants, 24 h; stronger effect = lower value; DMSO median 0, no signal -100 | GFP signal change (wild-type ribosome), % (test concentration not listed) | 1.6% of 350,000 active | AID 720706, 2013;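 active means significant combined selectivity score with lowered wild-type GFP, culture density cut under 30%, mutant RFP and density less affected; inactive means any of these conditions unmet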; further: one replicate is shown; some compounds called inactive have numbers as strong as hits
HNF4A DNA FP = change in binding of human HNF4A to DNA, primary screen, biochemical, fluorescence polarization, FITC-DNA; Hepatocyte nuclear factor 4-alpha (Homo sapiens), P41235; 1 h; activity change, % at 10 µM; 0.3% of 360,000 active; AID 1224865, 2016; in the data active means activity change above about 30%, passing the limit was not always enough;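 further: controls were the assay level and a saturating level of protein; the project sought stronger binding though the title names inhibitors; some compounds called inactive have numbers as strong as hits; positive values seem to mean higher polarization but the record does not say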
Ecoli rRNA inh OD600 = second read-out of Ecoli rRNA inh, no call of its own (marks repeat the call); OD600 change, %; measured here: OD600 growth;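 optical density of the mix in the first replicate; 0 = DMSO median and -100 = no signal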
Ecoli rRNA inh RFP = second read-out of Ecoli rRNA inh, no call of its own (marks repeat the call); RFP signal change, %; measured here: RFP humanized mutant strains;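 first replicate; 0 = DMSO median and -100 = no signal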
* hit, by the source's call; i = inactive; . = no result given.

molecule,E coli growth,Ecoli rRNA inh,Ecoli rRNA inh RFP,FGF22 binding,Beta2AR agonist,ALR inh,UCH37 inh,Ecoli rRNA inh OD600,HNF4A DNA FP
CCOC(=O)CN1C(=O)CSc2ccccc21,0.66,17,-2.6,i,3,-3,-0.6,13,1.3
O=C(NNC(=O)c1cc(-c2cccnc2)nc2ccccc12)Nc1ccc(Cl)cc1,0.52*,-29*,-9.2*,i,2,11,-0.9,8.4*,-0.1
O=C1C=C(c2ccccc2)CC(/C=C/c2ccccc2)C1 (stereo unspecified),.,.,.,.,-7,-37,.,.,-0.5
COc1ccc(C(=O)C2CCN(CC(=O)Nc3ccc(C)cc3)CC2)cc1,0.61,-7,1.4,i,-2,-2,0.7,-3,4.4
CCOC(=O)CNC=C(C(=O)OCC)C(=O)OCC,0.72,.,.,.,-1,-17,-0.5,.,-1.0
Cc1ccc(C(=O)N/C(=C/c2ccco2)C(=O)NC2CCS(=O)(=O)C2)cc1 (stereo unspecified),0.62,13,-0.5,i,-3,49,4.8,-2,0.4
Cc1ccc(NC(=O)Cn2nnc3ccccc3c2=O)cc1C,0.66,5,-3.3,i,-2,.,1.3,0,-1.7
COCCn1c(Cc2ccccc2)nnc1SCC(=O)N1CCCCC1C (stereo unspecified),0.68,.,.,.,-8,0,1.4,.,1.9
COC(=O)N/N=C(\C)c1cccs1,.,1,-2.6,i,-4,-19,.,6,-2.8
CCN(C(=O)COC(=O)c1ccc2ccccc2c1)c1c(N)n(Cc2ccccc2)c(=O)[nH]c1=O,0.69,1,0.4,i,-1,.,-0.2,14,3.4
CC(C)C[C@H]1CNC(=O)C(=O)N1C[C@H](Cc1ccc(O)cc1)NC(=O)CC12CC3CC(CC(C3)C1)C2,.,2,4.5,i,.,.,.,-7,0.4
O=C(NNC(=S)Nc1ccccc1)c1cccnc1,0.73,3,0.0,i,1,28,7.4,2,1.1
O=C(O)c1ccc(NC(=O)C2C3CCC(O3)C2C(=O)O)cc1 (stereo unspecified),0.7,11,-1.6,i,-4,-13,4.5,6,-2.2
O=C(Nc1cccnc1Cl)C1=NN(c2ccccc2)C(=O)CC1,0.59,-6,-1.6,i,9,-4,0.6,-3,-1.8
O=C(O)CCC(=O)Nc1ccc(Sc2ccc([N+](=O)[O-])cc2)cc1,0.64,-5,-4.6,i,4,-1,8.0,9,0.2
O=C(CCS(=O)(=O)c1ccc(Br)s1)Nc1ccccc1Br,0.68,-2,-2.3,i,-1,2,6.3,-13,-1.8
Cc1cc(C(=O)Cn2nc(C(=O)O)c3ccccc3c2=O)c(C)n1-c1ccccc1,0.69,8,-4.6,i,15,-3,5.5,7,0.9
C(#Cc1ccccc1)C[N+]1(CC#Cc2ccccc2)CCCC1,0.65,-44*,-14*,i,5,0,7.9,-30*,0.2
Cc1ccc(CNC(=O)COC(=O)C2CC2)cc1,0.62,6,-1.0,i,2,1,0.4,17,-4.8
CCN(CC)c1ccc(C(=O)OCC(=O)NCC2CCCO2)cc1 (stereo unspecified),0.69,.,.,.,2,46,4.1,.,-0.7
Cc1cccc(NS(=O)(=O)c2ccc(C)c(C(=O)N(C)C)c2)c1,0.67,5,-0.8,i,-4,-4,-3.2,1,-0.7
O=C(NNC(=O)c1cc(-c2ccc(Br)cc2)nc2ccccc12)c1csc(N2CCOCC2)n1,0.68,.,.,i,7,.,1.7,.,0.7
CCOC(=O)CSc1nc2c(sc(=S)n2-c2ccccc2)c(=O)[nH]1,0.69,-12,-1.1,i,9,-1,13,-36,4.3
O=C(Nc1ccc2c(c1)OCCO2)C1c2ccccc2C(=O)N2CCc3ccccc3C12 (stereo unspecified),0.67,13,2.6,i,-21,.,4.6,7,2.2
COC(=O)c1ccc(N2C(=O)c3cc(N4CCOCC4)c([N+](=O)[O-])cc3C2=O)cc1,0.7,11,-5.5,i,0,-3,2.9,6,1.0
COc1ccc(CN(C)C(=O)c2cc(-c3ccc(OC)c(OC)c3)nc3ccccc23)c(OC)c1,0.7,-23*,0.7*,i,8,-20,-155,-12*,2.2
COc1ccc(NC(=O)c2cc(C3CCCCN3C(=O)c3ccccc3)on2)c(C)c1 (stereo unspecified),.,-5,-3.2,i,.,.,.,-35,-0.6
CC1C(=O)C(C)C(c2cccs2)NC1c1cccs1 (stereo unspecified),0.71,.,.,.,1,4,0.8,.,-0.3
CSc1cccc(NC(=S)N2CCCN(Cc3cccc(Cl)c3)C2)c1,0.69,3,-2.2,i,19,-5,-0.8,-8,0.6
COc1ccc(CNC(=O)c2ccc(NC(=O)CC3SC(N4CCCCC4)=NC3=O)cc2)cc1 (stereo unspecified),0.78,.,.,.,2,-22,0.2,.,-0.5

Looked up by structure from the entries so far, two records:
molecule,E coli growth,Ecoli rRNA inh,Ecoli rRNA inh RFP,FGF22 binding,Beta2AR agonist,ALR inh,UCH37 inh,Ecoli rRNA inh OD600,HNF4A DNA FP
CCOC(=O)CN1C(=O)CSc2ccccc21,0.66,17,-2.6,i,3,-3,-0.6,13,1.3
O=C(NNC(=O)c1cc(-c2ccc(Br)cc2)nc2ccccc12)c1csc(N2CCOCC2)n1,0.68,.,.,i,7,.,1.7,.,0.7

New compounds follow.
molecule,E coli growth,Ecoli rRNA inh,Ecoli rRNA inh RFP,FGF22 binding,Beta2AR agonist,ALR inh,UCH37 inh,Ecoli rRNA inh OD600,HNF4A DNA FP
Cc1cc(C)n2cc(CSC3=NCCS3)nc2n1,0.76,.,.,.,-19,28,-30,.,0.0
O=c1c2ccccc2nc(/C=C/c2cccnc2)n1CCc1ccccc1,.,-27,13,i,4,3,.,-29,5.9
COC(=O)C1CSC(C(=O)OC)N1C(=O)Nc1ccc(Cl)cc1 (stereo unspecified),0.71,.,.,.,-13,.,0.5,.,0.5
CCCN(CC(=O)Nc1ccc(C)cc1Br)CC(=O)Nc1ccc(F)c(F)c1F,.,.,.,.,-3,-3,-2.4,.,3.2
O=C(NC(CC(=O)N1CCN(c2ccccc2)CC1)c1ccccc1)c1ccccc1 (stereo unspecified),.,-7,4.3,i,.,.,.,-4,0.3
CC(=O)NC(CC(C)C)C(=O)O (stereo unspecified),.,10,5.3,i,-5,.,.,12,-2.4
COCCN(C(=O)CSc1nnc(-c2ccco2)n1C)c1c(N)n(CC(C)C)c(=O)[nH]c1=O,0.67,13,-1.3,i,-4,-1,0.8,17,-1.1
COc1cccc(C2CCCN2Cc2nc(CCC(C)C)no2)c1 (stereo unspecified),0.68,-4,4.3,i,-6,0,2.8,-3,4.5
Cc1cc(=O)[nH]c2c1c(C)nn2C1CCOC(C)(C)C1 (stereo unspecified),0.66,.,.,.,-7,-5,0.0,.,0.7
O=C(Nc1cnc2sccn2c1=O)c1ccc(Cl)cc1Cl,0.73,.,.,.,-3,-8,-19,.,-1.8
Cc1[nH]n(C)c(=O)c1[N+](=O)[O-],0.67,14,-1.7,i,-11,-2,10,7,-1.1
Cc1ccc(N/N=C2\COC(C)(C)CC2=O)cc1,.,9,-0.7,i,10,99*,.,16,1.6
Cc1nc(OCC(=O)c2ccc(Cl)cc2)c(C#N)c2c1COC(C)(C)C2,0.7,.,.,.,-5,.,1.1,.,-4.3
Cc1cc(Br)c(NC(=O)C(C)Sc2nnnn2C)c(Br)c1 (stereo unspecified),0.65,9,0.4,i,-11,2,2.6,10,-1.8
CCOC(=O)c1c(NC(=O)CSc2nnnn2C)sc(C)c1-c1ccc(C)cc1,0.7,.,.,.,21,-3,3.3,.,-2.5
Cc1nc2sc(C(c3cccc(F)c3)N3CC(C)OC(C)C3)c(O)n2n1 (stereo unspecified),0.73,-1,-5.6,.,-1,2,3.8,-3,-1.0
CCOc1ccc(NC(=O)CN(C)C(=O)CSc2ccccc2)cc1OCC,0.7,2,-0.1,i,-3,.,5.8,6,-3.3
CC(Sc1nnnn1C)C(=O)Nc1ccc(Oc2ccccc2)cc1 (stereo unspecified),0.65,.,.,.,-5,.,2.9,.,2.5
COC(=O)CNC(=O)C12CC3CC(C1)CC(c1ccc(C)cc1)(C3)C2,0.7,-10,-7.0,i,-2,-4,1.6,-10,-3.2
COc1cccc(CNc2nc3nc4c(c(=O)n3[nH]2)CCC4)c1,0.65,.,.,.,-10,-11,1.3,.,0.0
COc1ccc2ccccc2c1CNCc1ccc(C)cc1,0.65,-11,-1.7,i,15,-10,2.9,-12,-2.3
COc1ccc(NC(=O)C2c3cc(OC)c(OC)cc3C(=O)N(C)C2c2cccnc2)cc1OC (stereo unspecified),0.72,.,.,.,-3,-6,0.7,.,-5.0
O=C(C[C@@H]1C/C=C\C[C@@H](Cc2ccc(F)cc2)C(=O)OC[C@@H](Cc2c[nH]c3ccccc23)NC1=O)NCCO,.,-3,-1.0,i,-9,-1,0.1,-9,-2.0
O=C(Nc1cc(-c2nc3ncccc3o2)ccc1Cl)c1cccs1,0.67,5,9.0,i,19,-1,2.3,29,2.7
CC1CC2=C(NC(=S)NC2c2cccc(F)c2)/C(=C/c2cccc(F)c2)C1 (stereo unspecified),0.6,-24,13,i,3,.,1.1,-23,3.3
O=C1C=C(c2cc3ccccc3s2)C[C@@H](c2ccc(F)cc2)C1,.,-3,8.5,i,3,-1,0.4,-11,-0.7
CCOc1cc(/C=N/NC(=O)CCn2nnc3ccccc32)ccc1O,.,-8,5.5,i,-3,100*,.,-1,1.9
COc1ccc(NC(=O)C2CCCN(C(=O)Nc3ccc(OC)cc3)C2)cc1 (stereo unspecified),0.71,3,-2.3,i,2,-4,-1.6,-5,1.1
O=C(CSc1nnc(NC(=O)c2ccco2)s1)NCc1ccc2c(c1)OCO2,0.7,-14,-0.6,i,-5,-9,2.5,4,3.3
O=C(Cn1cc(C(=O)C2CC2)c2ccccc21)NC1CCCC1,0.7,.,.,.,-5,.,-2.4,.,-0.1
S=c1[nH]nc(-c2ccco2)n1/N=C/c1cccc(Cl)c1Cl,.,-5,3.6,i,5,96*,.,-7,-0.7
O=C1Nc2ccccc2SC1c1ccccc1Cl (stereo unspecified),0.71,1,5.9,i,-1,.,1.5,-10,-1.5
COc1ccc(-c2ccc(SCC(=O)c3cccs3)nn2)cc1OC,0.71,-34*,8.6*,i,2,63,4.4,-27*,4.0
NNC(=O)/C(=C/c1cccs1)NC(=O)c1ccccc1Cl,0.7,25,5.2,.,-2,.,4.1,7,-1.5
O=C(CCN1CCCCC1=O)NC1CCCc2c1cnn2-c1ccccc1F (stereo unspecified),0.67,7,-1.1,i,-3,-5,4.7,6,0.2
Cc1ccccc1NC(=O)n1ncc2cc(Cl)ccc21,0.64,10,-0.8,i,11,.,0.1,15,-2.3
c1ccc(CNc2nc(NCc3ccco3)nc(N3CCOCC3)n2)cc1,0.68,-10,1.0,i,-4,-1,3.1,-12,-0.2
Cc1nnc(N/N=C/c2ccccn2)[nH]c1=O,.,-26*,2.3*,i,-1,1,.,6.6*,-6.5

Compound activity as filed in PubChem.

Not all compounds are listed; the hit share may differ from the screen's.
